Screening data as filed in PubChem.
HPGD block: HPGD (human) dehydrogenase inhibition; 150,000 tested, 4.3% active; P15428; Potency, µM, without a hit: top-dose activity change, negative = inhibition, most hits filed as inhibitors; purified HPGD, NADH fluorescence kinetic, PGE2 substrate; active = well fitted inhibition curve with a large enough effect (not every such curve was filed as active); inconclusive = small, poorly fitted or top-dose-only effect, or another doubt; inactive = no such curve, though single readings can be large or run the other way;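 further: top concentration of the series not given in the record; plate controls included wells without enzyme; inactives centre near -10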
Target sequence (P15428 whole entry, looked up): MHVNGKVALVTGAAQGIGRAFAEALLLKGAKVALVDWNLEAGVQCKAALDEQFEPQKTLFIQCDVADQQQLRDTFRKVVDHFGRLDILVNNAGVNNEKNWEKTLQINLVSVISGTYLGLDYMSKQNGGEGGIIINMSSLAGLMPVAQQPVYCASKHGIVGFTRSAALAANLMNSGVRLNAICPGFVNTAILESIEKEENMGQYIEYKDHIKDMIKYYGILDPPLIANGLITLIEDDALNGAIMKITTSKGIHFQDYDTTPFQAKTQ
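NADH formation kinetics: reaction with 30 uM PGE2 and 1 mM NAD+ (final), 20 nM enzyme, Tris-HCl pH 8 with Tween 20, after 15 min compound preincubation at room temperature. Fluorescence change, last versus first of five reads.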
* hit, by the source's call; ? = inconclusive. On the % scale 0 is the no-effect control and ±100 the full control effect; potency means the concentration at half of the fitted maximal effect.

SMILES	HPGD block
CCOc1ccc(-n2c(SCC(=O)Nc3ccc(OC)cc3)nc3c(c2=O)SCC3)cc1	-12%
COC(=O)c1cccc(C23CC4(C2)[C@H](CN(Cc2cccnc2)[C@@H]4c2ccccc2)C3c2ccccc2)c1 (stereo partly specified)	-9%
COc1ccccc1N1CCN(C(c2cc3cc(C)ccc3[nH]c2=O)c2nnnn2C2CCCC2)CC1 (stereo unspecified)	-3%
O=C(NCc1ccco1)c1ccccc1F	?
OC(CN1CCN(Cc2ccc3c(c2)OCO3)CC1)c1c[nH]c2ccccc12 (stereo unspecified)	-11%
Cc1ccc(S(=O)(=O)N(CC(=O)N=Nc2c(O)[nH]c3ccccc23)c2ccc(C)c(C)c2)cc1	-26%
C=CCC(=O)OCCCCCCOc1ccc(C(=O)O)cc1	-27%
COCCn1nnnc1C(c1cc2ccc(OC)cc2[nH]c1=O)N1CCN(C2CCCCC2)CC1 (stereo unspecified)	?
CCN(CC)S(=O)(=O)c1cccc(C(=O)N[C@H](C(=O)OCC(N)=O)C(C)C)c1	0%
COc1ccc(NC(=O)CSc2nc(O)cc(=O)n2C)cc1	-8%
O=C(NNc1c(Cl)cc(Cl)cc1Cl)c1cccc([N+](=O)[O-])c1	-12%
Cc1ccc(N=CC2=C(O)CC(C)(C)CC2=O)nc1	-14%
CC1(C)CC2CC(C)(CN2C(=O)Cc2ccccc2)C1 (stereo unspecified)	?
Fc1ccccc1Nc1nc(-c2ccncc2)nc2ccccc12	-12%
N#Cc1ccc(CS(=O)(=O)c2nnnn2-c2ccccc2)cc1	-5%
CCOC(=O)c1sc(/N=C/c2c(O)ccc3ccccc23)cc1C	-22%
COC(=O)CSc1nnc(CNc2ccc(Cl)cc2)n1Cc1ccccc1	-6%
Cc1ccc(C(=O)Nc2cnc3ccccn3c2=O)cc1	?
COC(CNC(=O)c1ccc(N2CCCC2=O)cc1)OC	?
CCCc1nnc(SCc2ccc(OCC)cc2)n1N	28µM*
COc1ccc(N2C(=O)CCC(C(=O)NCc3cccnc3)C2c2ccc(OC)c(OC)c2)cc1 (stereo unspecified)	-7%
O=C(CCSCc1ccc(Cl)cc1)NC1CCCC1	18µM*
Cc1ccccc1N1CCN(C2=NC(=O)/C(=C\c3cccs3)S2)CC1	25µM*
COc1cccc(NC2CC(=O)N(CCc3ccccc3)C2=O)c1 (stereo unspecified)	-1%
O=C(c1sccc1-n1cccc1)N1CCCC1	-11%
O=C(C(F)C(F)(F)F)N1CCN(c2ccccc2)CC1 (stereo unspecified)	-9%
CSc1ccccc1C(=O)NCCSc1ccccc1	16µM*
CCOc1ccc(C(=O)N[C@H](C(=O)Nc2cccc(S(=O)(=O)N3CCCCC3)c2)C(C)C)cc1	-14%
c1ccc(C(c2nnnn2C2CCCCC2)N2CCc3ccccc3C2)nc1 (stereo unspecified)	?
Cc1noc(C)c1S(=O)(=O)N(CC(=O)N1CCCCCC1)c1ccc(C(C)C)cc1	-9%
OC(Cc1cccnc1)(c1ccccc1)c1ccccc1	-12%
COc1ccccc1OC[C@H](O)CO	-3%
CC(C)c1ccc(NC(=O)c2cc(S(=O)(=O)NCC3COc4ccccc4O3)ccc2F)cc1 (stereo unspecified)	-11%
CCOc1ccc(CCNC(=O)Cn2c(=O)oc3ccccc32)cc1OCC	-12%
CC(=O)Nc1ccc(S(=O)(=O)Nc2nnc(C(C)(C)C)s2)cc1	-18%
COCCn1c(SCC(=O)N2CCc3ccccc3C2)nc2ccccc2c1=O	-3%
S=c1nc(-c2cccc(Br)c2)[nH][nH]1	?
C/C(=N\NC(=O)CSc1nnc(C)s1)c1ccc(Cl)cc1	-5%
CC(=O)C1=C(C)NC(SCC(=O)c2ccc(Cl)cc2Cl)=C(C#N)C1c1ccco1 (stereo unspecified)	?
CCNC(=O)COc1ccc2ccccc2c1	-14%

As entered above.
HPGD block result of `OC(Cc1cccnc1)(c1ccccc1)c1ccccc1` → -12%
HPGD block result of `CCNC(=O)COc1ccc2ccccc2c1` → -14%
HPGD block result of `C/C(=N\NC(=O)CSc1nnc(C)s1)c1ccc(Cl)cc1` → -5%

Entries above printed as active in HPGD block.
SMILES	HPGD block
CCCc1nnc(SCc2ccc(OCC)cc2)n1N	28µM*
O=C(CCSCc1ccc(Cl)cc1)NC1CCCC1	18µM*
Cc1ccccc1N1CCN(C2=NC(=O)/C(=C\c3cccs3)S2)CC1	25µM*
CSc1ccccc1C(=O)NCCSc1ccccc1	16µM*

Next section
SMILES	HPGD block
CCOC(=O)c1cccc(NC(=O)C2CCC(CNc3c(N4CCOCC4)c(=O)c3=O)CC2)c1 (stereo unspecified)	-20%
O=S(=O)(c1ccc(Cl)c(C(F)(F)F)c1)N1CCN(CC(O)COCC2CCCO2)CC1 (stereo unspecified)	-6%
c1ccc2c(c1)Nc1nccnc1S2	?
COc1cccc(-c2nc(=S)c3c(n2Cc2ccco2)CCCC3)c1	-7%
CC(C(=O)NCC1(c2ccccc2)CCCC1)N1CCOCC1 (stereo unspecified)	0%
Cc1ccc(-c2nnc(CSc3nc(C)nc4sc(C)c(C)c34)o2)cc1	-18%
O=C(CSc1nc2[nH]ncc2c(=O)[nH]1)N1CCCCC1	-9%
CCOC(=O)C1=C(C)NC(C)=C(C(=O)OCC)C1c1ccc(OC)cc1	?
CC1CCN(C(=O)CSc2ccc(-c3ccc(F)cc3)nn2)CC1	10µM*
Cc1cccc(-n2c(CCn3nc(C)c([N+](=O)[O-])c3C)n[nH]c2=S)c1	-17%
CC(=O)C1=C(O)C(=O)N(c2nccs2)C1c1ccc(F)cc1 (stereo unspecified)	-15%
O=C(Nc1ccc(-c2noc(CCc3ccccc3)n2)cc1)c1cccnc1	?
O=C(CCCCn1c(=O)c2ccccc2n(Cc2ccc(F)cc2)c1=O)NCc1ccco1	-24%
Cn1/c(=N/N=C/c2ccc([N+](=O)[O-])cc2)sc2ccccc21	-20%
O=C(NCCN1CCOCC1)NC1(C(F)(F)F)Oc2ccc(Cl)cc2O1 (stereo unspecified)	-6%
CCOc1cc(/C=N/NC(N)=O)cc(Br)c1OCC(=O)Nc1cccc2ccccc12	-16%
CN(c1cccc(NC(=O)Nc2cccc(Cl)c2)c1)S(C)(=O)=O	-7%
Cc1noc(C)c1C1(O)CCCCCCCCCCC1	3%
CCCn1c(C(O)c2cc(OC)ccc2OC)nc2ccccc21 (stereo unspecified)	-6%
O=C(NCN1C(=O)C2C3C=CC(C3)C2C1=O)Nc1cccnc1 (stereo unspecified)	2%
Cc1ccc(/C=C/C(=O)O)cc1S(=O)(=O)NCCO	-1%
CCOc1ccccc1N1C(=O)CC(Nc2ccc(N3CCOCC3)cc2)C1=O (stereo unspecified)	-16%
O=C(O)c1cc(-c2ccc(-c3ccc(-c4cc(C(=O)O)c5cc(Cl)ccc5n4)cc3)cc2)nc2ccc(Cl)cc12	?
COC(=O)c1ccccc1NC(=O)CN1CCN(C(=O)c2ccco2)CC1	-5%
N=C(N)S[C@H]1c2ccccc2-c2cc([N+](=O)[O-])ccc21	-13%
O=C(COC(=O)/C=C/c1cccc(Cl)c1)NCCc1ccccc1	-5%
COc1ccccc1N1CCN(S(C)(=O)=O)CC1	1%
CCOC(=O)c1oc2cccc(OC(C)=O)c2c1C	-17%
COc1ccc(S(=O)(=O)N2CCN(C(=O)c3ccco3)CC2)cc1OC	-8%
COc1ccccc1/C=C/C(=O)N1CCCC1	?
O=C(C1CCC1)N1CCc2cc(S(=O)(=O)NCc3cccnc3)ccc21	-2%
NC1=NC(=O)/C(=C\C=C\c2ccccc2)S1	-11%
Cc1ccc(C)c(NC(=O)C(Sc2nc3ccc(C)cc3[nH]2)c2ccccc2)c1 (stereo unspecified)	-2%
CCN1CCN(c2cc(C)c3cc(NC(=O)Cc4ccc(OC)c(OC)c4)ccc3n2)CC1	?
Cc1cc(C)c(Cc2c(C)nc3c(C(=O)NCc4ccco4)cnn3c2C)c(C)c1	?
COc1ccc2cc(CCNC(=O)c3cccs3)c(=O)[nH]c2c1	?
O=C(c1ccco1)N1CCN(C(=O)c2ccc(COc3ccc4c(c3)CCC4)o2)CC1	28µM*
CCOC(=O)N1CCN(CC(=O)N2c3ccccc3CC2C)CC1 (stereo unspecified)	-3%
N/C(=N\OC(=O)CCC1CCCC1)c1cccnc1	-16%
COc1ccc(C2NC(=S)N3C(c4ccc(OC)cc4)NC(=S)N23)cc1 (stereo unspecified)	?
CCOC(=O)c1ccccc1NC(=O)c1c(F)c(F)c(F)c(F)c1F	-9%
CC(=O)Cc1nsc(NC(=O)c2ccccc2)n1	-2%
CCN1CCN(Cc2oc(CO)cc(=O)c2O)CC1	-8%
CCCCCOC(=O)c1[nH]c2c(c1C)C(=O)C(C(=O)OC)C(C)C2 (stereo unspecified)	-9%
O=C1C=CC(=O)N1CCCCCCN1C(=O)C=CC1=O	2.2µM*
O=C(Nc1ccccc1C(=O)N1CCCCCC1)c1cccc(S(=O)(=O)N2CCOCC2)c1	-2%
CC(=O)NC1(c2ccccc2)CCN(c2nc(C)cc(C)n2)CC1	?
Cc1nc2ccccc2nc(C)c1=NOCc1ccccc1Cl	-20%
COC(=O)C1=CO[C@@H](OC2OC(CO)C(O)C(O)C2O)[C@@H]2C(CO)=CC[C@H]12 (stereo partly specified)	-15%
O=C(CC1Oc2ccc(Cl)cc2NC1=O)NC1CCCCCC1 (stereo unspecified)	-6%

(cont.)
SMILES	HPGD block
N[C@H](C(=O)O)C(O)C(O)C(O)CO (stereo partly specified)	-6%
COc1ccc(NC(=O)c2cccnc2Cl)c(S(=O)(=O)N2CCOCC2)c1	-13%
COc1ccc(-c2cc(C)nc(SCC(=O)c3cccc([N+](=O)[O-])c3)n2)cc1	-8%
CCOC(=O)CCc1c(C)nc2cc(-c3ccc(Cl)cc3)[nH]n2c1=O	-12%
CC1CCCN(c2nc3ccccc3nc2C(C#N)S(=O)(=O)c2cccs2)C1 (stereo unspecified)	-12%
CC1(C)N(OCc2ccccc2)C(=O)C(=O)N(OCc2ccccc2)C1(C)C	-4%
C=CCN(CC=C)S(=O)(=O)c1ccc(NC(=O)COc2ccccc2OC)cc1	-3%
CCOC(=O)C1(S(=O)(=O)c2ccccc2)CCN(Cc2ccccc2)CC1	-7%
CCCOc1ccc(C(C)=O)cc1CN1CCOCC1	-1%
CCOCCCNC(=O)N[C@@H](Cc1ccccc1)C(=O)OC	-1%
COC(=O)C(Cc1ccc(O)cc1)NC(=O)c1ccccc1 (stereo unspecified)	-2%
CCC1(C)Cc2ccccc2-c2nc(-c3ccccc3)oc(=O)c21 (stereo unspecified)	-11%
O=C(NCCCN1CCCC1=O)Nc1ccc(F)c(Cl)c1	-13%
Oc1ccc(C2C(c3ccccc3)=NN=C(c3ccccc3F)N2O)c(O)c1 (stereo unspecified)	-3%
OC(COc1cccc2ccccc12)CN1CCCC1 (stereo unspecified)	-2%
O=[N+]([O-])c1ccc(S(=O)(=O)NCCc2cn3ccccc3n2)cc1	-5%
O=C(COC(=O)c1n[nH]c2ccccc12)Nc1ccc([N+](=O)[O-])cc1	-23%
Cc1ccc(S(=O)(=O)Nc2ccccc2C(=O)c2ccc(C)c(C)c2)cc1	?
COCCCn1c(=N)c(C(=O)NCC2CCCO2)cc2c(=O)n3ccccc3nc21 (stereo unspecified)	?
CC(=NCCCn1ccnc1)c1c(O)n(Cc2ccccc2)c(=O)[nH]c1=O	-27%

Shown in markdown: part of the list above.
| compound | HPGD block |
| --- | --- |
| COC(=O)C(Cc1ccc(O)cc1)NC(=O)c1ccccc1 (stereo unspecified) | -2% |
| CCC1(C)Cc2ccccc2-c2nc(-c3ccccc3)oc(=O)c21 (stereo unspecified) | -11% |
| O=C(NCCCN1CCCC1=O)Nc1ccc(F)c(Cl)c1 | -13% |
| Oc1ccc(C2C(c3ccccc3)=NN=C(c3ccccc3F)N2O)c(O)c1 (stereo unspecified) | -3% |
| OC(COc1cccc2ccccc12)CN1CCCC1 (stereo unspecified) | -2% |
| O=[N+]([O-])c1ccc(S(=O)(=O)NCCc2cn3ccccc3n2)cc1 | -5% |

Next compounds:
SMILES	HPGD block
CCCCOc1nc2ccccc2nc1C(C#N)C(=O)NC1CCCCC1 (stereo unspecified)	-10%
CC(C)Oc1ccc(C2CC(=O)NC3=C2C(=O)CCC3)cc1 (stereo unspecified)	-12%
Cc1ccc(S(=O)(=O)NCCC(=O)Nc2ccc3c(c2)OCO3)cc1	-4%
Cc1noc(NS(=O)(=O)c2ccc(NC(=O)CC34CC5CC(CC(Br)(C5)C3)C4)cc2)c1C	-16%
Cc1cc(=O)[nH]c2c1c(=O)[nH]n2C1CC(C)N(C)CC1C (stereo unspecified)	-22%
COc1cc2c(c(OC)c1OC)CC(=O)N(C)CC2	-3%
O=C(CSCSCC(=O)Nc1ccc2c(c1)OCO2)Nc1ccc2c(c1)OCO2	-4%
CC(=O)Nc1cccc(NC(=O)c2cc(C)on2)c1	-1%
O=C(Nc1ccccc1C(F)(F)F)Nc1cccc2ccccc12	-23%
Cc1nc(-c2coc3c(O)c(O)ccc3c2=O)cs1	-22%

An excerpt; the hit share may differ from the screen's.
